Compound activity: PubChem BioAssay, several laboratories
UCH37 DUB inh = blocks the human deubiquitinase UCH37. inhibition, % (test concentration not listed). Q9Y5K5. 330,000 compounds, 0.33% hits. purified proteasome/UCH37, Ub-AMC cleavage fluorescence;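 active means mean of two replicates above 20%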;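 further: 0% = compound-free wells with enzyme and 100% = wells lacking proteasome; stock transfer was 100 nL into about 20 µL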
Target sequence (Q9Y5K5 whole entry, looked up): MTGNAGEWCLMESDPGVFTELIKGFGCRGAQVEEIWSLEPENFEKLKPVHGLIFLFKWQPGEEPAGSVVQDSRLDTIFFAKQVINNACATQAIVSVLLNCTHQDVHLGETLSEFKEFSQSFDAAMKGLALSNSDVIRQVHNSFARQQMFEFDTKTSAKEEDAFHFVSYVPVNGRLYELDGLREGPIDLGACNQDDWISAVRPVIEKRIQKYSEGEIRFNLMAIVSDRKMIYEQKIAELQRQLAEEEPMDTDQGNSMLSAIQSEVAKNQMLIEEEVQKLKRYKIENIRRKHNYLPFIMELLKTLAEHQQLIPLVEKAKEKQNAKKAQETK
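System: Proteasome-associated human UCH37 deubiquitinase; Input: 0.15 nM proteasome in added enzyme buffer; Also added: Ub-AMC substrate from 1 µM stock; Incubation: 30 min compound-proteasome preincubation then 25 min substrate reaction, room temperature; Detection: fluorescence, ex 355 nm, em 460 nm; Read-out: % inhibition of Ub-AMC cleavage fluorescence; Benchmarks: no-proteasome and no-compound wells.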
HNF4A DNA FP = change in binding of human HNF4 alpha to DNA. P41235. activity change, % at 10 µM. HNF4a-FITC DNA binding, fluorescence polarization, 1 h. 360,000 compounds, 0.3% hits; in the data active means activity change above about 30%, passing the limit was not always enough;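 further: controls were the assay level and a saturating level of protein; the project sought stronger binding though the title names inhibitors; some compounds called inactive have numbers as strong as hits; positive values seem to mean higher polarization but the record does not say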
Target sequence (P41235 whole entry, looked up): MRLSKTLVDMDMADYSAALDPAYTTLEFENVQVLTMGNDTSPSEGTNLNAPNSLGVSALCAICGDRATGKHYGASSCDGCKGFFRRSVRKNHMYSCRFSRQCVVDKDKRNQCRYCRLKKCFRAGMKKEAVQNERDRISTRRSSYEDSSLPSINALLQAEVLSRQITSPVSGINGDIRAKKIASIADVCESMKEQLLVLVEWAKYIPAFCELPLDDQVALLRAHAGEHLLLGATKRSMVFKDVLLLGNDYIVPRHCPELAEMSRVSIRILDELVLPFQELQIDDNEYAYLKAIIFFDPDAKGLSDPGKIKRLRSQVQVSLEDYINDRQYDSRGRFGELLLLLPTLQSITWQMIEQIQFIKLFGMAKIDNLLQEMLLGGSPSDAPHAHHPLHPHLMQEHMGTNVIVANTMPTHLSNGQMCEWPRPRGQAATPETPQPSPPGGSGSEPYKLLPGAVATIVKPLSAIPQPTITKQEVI
RanGTP-Imp inh = inhibitors of RanGTP-importin-beta interaction, primary screen, biochemical, FRET, CFP-Ran, YFP-importin-beta, homogeneous; cell-free CFP-Ran/YFP-importin-beta FRET ratio; 300,000 compounds, 1.1% hits; AID 2216; inhibition, % (concentration not given with the values);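 active means most replicates above 15%; inconclusive means exactly half above 15%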;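 further: 0% = DMSO wells and 100% = Ran loaded with GDP instead of GTP; wells of about 40 µL received 100 nL stock; the first replicate is given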
AF4-AF9 inh = blocks AF4 peptide binding to human AF9 | AlphaScreen, biotin-AF4 peptide binding to FLAG-AF9 | 350,000 compounds, 0.47% hits | inhibition, % at 10 µM | P42568 | AID 651704;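 active means every replicate reaching a set inhibition limit, whatever the replicate mean, cut at about 25% in these data; inconclusive means mean inhibition reaches that limit but some replicates miss it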;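 further: 0% = plate neutral control median and 100% = total signal loss; the record names both 10 and 1 µM as test concentration; the first replicate is given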
E coli growth = inhibitors of Escherichia coli growth; OD600, 23 h; hits give low values; OD600 absorbance (concentration not given with the values); 330,000 compounds, 0.21% hits;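 active means OD600 absorbance below the run mean of sample wells minus 3.6 SD, in any replicate, cut at about 0.56 in these data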;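 further: stock transfer was 300 nL into about 60 µL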
FGF22 binding = FGF22 (human) thermal shift binding. calls only at 9.99 µM. AID 651658. 340,000 compounds, 1.5% hits. Q9HCT0. recombinant FGF22 thermal shift, SYPRO orange fluorescence; percent of sucrose octasulfate shift, DMSO zero;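 active means melting point raised past a set limit in the mean and every replicate; inconclusive means no clear call; three in four hits are not shown here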
Target sequence (Q9HCT0 whole entry, looked up): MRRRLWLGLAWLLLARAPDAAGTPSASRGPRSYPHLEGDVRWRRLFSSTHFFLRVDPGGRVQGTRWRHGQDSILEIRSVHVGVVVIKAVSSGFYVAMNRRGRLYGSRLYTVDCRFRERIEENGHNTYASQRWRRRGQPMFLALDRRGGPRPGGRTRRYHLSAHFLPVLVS
Vif TR-FRET = HIV-1 Vif–A3G interaction blockers – biochemical, TR-FRET, GST-Vif 1-94, biotin-A3G peptide, dose response retest, primary screen (AID 1117319); TR-FRET GST-Vif / biotin-A3G peptide binding; higher % means a stronger effect; test concentration not given here; strong numbers were not always called active; inhibition, %; hits with a dose series show IC50 in µM; 260,000 compounds, 0.57% hits;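 active means above the screen mean plus three standard deviations and confirmed in dose response; inconclusive means results disagree or hit not tested in dose response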;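 further: Vif residues 1-94 fused to GST binding biotinylated APOBEC3G peptide 110-148; 0% = full assay without inhibitor and 100% = GST in place of GST-Vif; retest series ran down from 100 µM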
* = called active by the depositor; i = inactive; ? = inconclusive; · = no result given; + = active, no number; & = joins results of further samples. Some of the compounds tested; rates above refer to the full screens.

Fields: HNF4A DNA FP	E coli growth	RanGTP-Imp inh	FGF22 binding	UCH37 DUB inh	Vif TR-FRET	AF4-AF9 inh
> COCCn1c(C)cc(C(=O)COc2cccnc2[N+](=O)[O-])c1C
→ 1.5	0.67	-5.0	i	6.6	?	1.6
> CCCN1CCN(CCCNC(=O)Cn2ncc3c4ccccc4n(C)c3c2=O)CC1
→ -4.9	0.72	-5.0	i	-15	15%	-2.4
> Cc1ccc2c(c1)c1c(n2C)-c2[nH]ncc2CC1
→ 2.7	0.7	-3.3	·	-20	·	·
> NC(N)=NCCC[C@H](NC(=O)OCc1ccccc1)C(=O)O
→ -23	·	2.3	i	2.1	·	2.6
> CCCc1cc(=O)[nH]c(SCC(=O)c2cc(C)n(CC3CCCO3)c2C)n1 (stereo unspecified)
→ -1.1	0.7	·	i	1.9	·	0.6
> CCOC(=O)c1cc(-c2ccccc2)nn1CC1CC(c2ccc(OC)cc2)=NO1 (stereo unspecified)
→ -1.7	0.76	·	i	1.2	·	0.7
> Cc1ccc(C)c2[nH]c(=O)c(CN(CC3CCCO3)S(=O)(=O)c3ccc4c(c3)OCCO4)cc12 (stereo unspecified)
→ -3.1	0.7	-5.7	·	-8.3	?	·
> COc1ccccc1OCc1ccc(C(=O)Nc2ccccc2F)cc1
→ 0.9	0.7	2.3	·	-1.8	8%	·
> CC1(C)Cc2c(c(N3CCOCC3)nc3sc4c(NCc5ccccc5)nnnc4c23)CS1
→ -0.9	0.76	-0.3	·	-8.3	-2%	·
> O=C1c2ccccc2C(=O)N1S(=O)(=O)c1ccccc1
→ -0.5	0.7	-3.7	i	-1.7	0%	-13
> O=C(CCCCCCCC(=O)NCC1CCCO1)NCC1CCCO1 (stereo unspecified)
→ 0.4	0.71	-1.1	·	0.1	0%	·
> CCc1nnc(NC(=O)CCN2C(=O)c3ccccc3C2=O)s1
→ 3.2	0.74	6.1	·	2.8	?	·
> COc1cc2c(cc1OC)CN(C(=O)CCN1C(=O)C3CCCCC3C1=O)CC2 (stereo unspecified)
→ 0.9	0.69	-0.4	·	4.6	0%	-2.7
> CCN(CC)C(=O)C1CCCN(c2ccc([N+](=O)[O-])cc2/C=N/NC(=O)c2ccccc2)C1 (stereo unspecified)
→ -2.1	·	-0.3	·	·	5%	·
> COC(=O)c1cc(=O)nc(NN=Cc2ccc(C)cc2)s1
→ 0.1	·	·	i	·	·	0.6
> Cc1ccc(S(=O)(=O)N(C)c2ccc3c(ncn3C)c2[N+](=O)[O-])cc1
→ -2.4	0.67	1.4	i	3.0	·	1.2
> CCOc1ccc(C(NC(=O)c2ccco2)c2ccc(OC)c(OC)c2)cc1 (stereo unspecified)
→ -1.7	0.66	0.1	·	-1.3	4%	·
> O=C(c1ccc([N+](=O)[O-])cc1[N+](=O)[O-])N1CCc2ccccc21
→ -1.2	0.69	-0.2	i	6.7	-9%	-1.9
> CC(C)[C@H](NC(=O)c1ccccc1)C(=O)OCC(=O)NCCc1ccc(F)cc1
→ -0.2	·	-0.9	·	2.3	-12%	·
> CCC(C)(C)NC(=O)c1ccc2c(c1)N(CC(=O)N1CCCC1)C(=O)C(C)(C)O2
→ -2.2	0.69	-0.1	i	4.3	-3%	5.0
> Cc1ccc[n+](CC(=O)Nc2ccc(N(C)C)cc2)c1
→ 2.4	0.69	0.9	i	5.2	·	4.2
> Cc1cc(C(=O)COC(=O)c2ccc(NC(=O)CC#N)cc2)c(C)n1C1CC1
→ 9.2	0.72	·	i	-1.2	-2%	-5.1
> CCCCCCSc1cc(-c2nc3ccc(C)cn3c2NCc2ccccc2)ccc1OC
→ 1.5&2.7	0.7	-1.3	i	-191	·	7.5
> COc1ccc(CC(CC(=O)O)C(=O)Nc2ccc(OC)cc2)cc1 (stereo unspecified)
→ -0.2	0.7	2.6	·	2.9	-2%	·
> CCCCCCCCCCn1ccc(=N)cc1
→ 0.6	0.45*	0.9	i	4.0	·	·
> CC1CN(CCC(=O)Nc2ccc3c(c2)OCO3)CC(C)O1 (stereo unspecified)
→ -2.2	0.69	-1.4	·	3.6	12%	·
> COC(=O)CCC(=O)OC1(C)C(=O)C=C2C=C(C3CC3)N(c3ccccc3)C=C2C1=O (stereo unspecified)
→ -4.8	0.68	-0.4	i	0.4	22%	1.3
> Cc1ccc(S(=O)(=O)NCc2cccnc2)cc1C
→ 2.3	0.68	-0.4	+	1.4	-13%	-2.3
> Cc1cccnc1NC(=O)c1ccc(Cl)c(S(=O)(=O)N2CCCCC2)c1
→ 1.0	0.67	-0.9	i	4.4	-5%	0.1
> Cn1c(=O)c2c(nc(SCCN3CCOCC3)n2C)n(C)c1=O
→ 2.8	0.69	4.1	i	2.8	3%	0.6
> O=C(Cc1c(Cl)cccc1Cl)OCC(=O)N1CCN(C(=O)c2ccco2)CC1
→ 2.8	0.66	?	i	1.2	10%	0.3
> Cc1ccc(C(=O)Oc2coc(CSc3nnc(NC(=O)C4CC4)s3)cc2=O)cc1
→ -3.4	0.68	?	i	-1.5	·	0.4
> COc1ccccc1CNC(=O)[C@H](C)NC(=O)C1CCN(C(=O)[C@@H](N)CC(C)C)CC1
→ 0.6	·	6.6	i	·	·	-0.8
> COCCCNC(=O)Cn1c(=O)oc2cc(S(=O)(=O)N3CC(C)CC(C)C3)ccc21 (stereo unspecified)
→ -2.4	0.66	3.9	i	5.1	8%	1.3
> C/C(N)=C(/C#N)C(=O)COC(=O)c1ccccc1C(=O)c1ccc(C)cc1
→ 2.9	0.68	1.3	i	1.3	-3%	-7.9
> O=C(CSc1nnc(-c2ccco2)o1)Nc1c(F)cccc1F
→ 0.6	0.68	·	i	-0.2	·	-0.9
> CCn1c(-c2cccs2)nc2ccccc21
→ 0.4	0.7	5.8	·	-9.4	13%	·
> Nc1nnc2cc(Br)ccc2n1
→ -48	·	·	i	·	0%	-12
> CN(C1=NC(=O)C(CC(=O)Nc2ccc(Br)cc2)S1)c1ccc(O)cc1 (stereo unspecified)
→ -2.6	0.68	2.8	·	6.1	8%	·
> COc1ccccc1CNS(=O)(=O)c1cc(C(=O)NCc2ccccn2)c(Cl)cc1Cl
→ 3.2	0.62	·	i	2.0	27%	1.3
> CCN(CC)C(=O)c1sc2c(c1C)c(=O)n(-c1ccc(C)c(C)c1)c(=O)n2CC(=O)NCC1CCCO1 (stereo unspecified)
→ -2.0	0.73	1.8	i	1.0	·	-4.0
> O=C(NCCc1ccccc1)C1CCN(C(=O)Nc2ccccc2)CC1
→ 3.8	0.63	-3.1	i	3.8	-3%	-9.8
> COc1ccc(-c2coc3c(C(=O)Nc4cccc(NS(C)(=O)=O)c4)cccc23)c(C)c1
→ 1.0	·	·	i	·	·	-0.1
> CC(Oc1ccc2c3c(c(=O)oc2c1)CCCC3)C(=O)NCCCn1ccnc1 (stereo unspecified)
→ 3.2	0.69	0.0	i	-14	·	4.0
> COCc1cccc(-c2csc(C(O)c3cccc(OC)c3)n2)c1 (stereo unspecified)
→ 4.8	·	·	i	·	·	-5.1
> CCN(CC)c1ccc(/C=N/Nc2ccc(C)cc2)c(O)c1
→ 12	·	·	i	·	·	4.2
> Fc1ccc(Oc2cnns2)cc1
→ 5.9	0.69	4.7	i	-1.2	7%	-14
> Cc1cc(C)nc(SCC(=O)N/N=C/c2cccnc2)n1
→ 0.6	·	4.0	i	·	-10%	-1.8
> COc1ccc2nc(SCC(=O)NCc3ccc(OC)c(OC)c3)[nH]c2c1
→ 3.9	0.66	5.3	i	3.9	·	-1.7
> Cc1ccc(F)cc1C(=O)N1CCCC(C)(C(=O)NS(=O)(=O)C2CC2)C1 (stereo unspecified)
→ -0.7	·	·	i	·	·	-2.3
> NC(CSC1(c2ccccc2)c2ccccc2-c2ccccc21)C(=O)O (stereo unspecified)
→ 1.0	·	·	i	·	6%	-1.1
> CN(C)CCCn1c(-c2ccccc2)nc(=S)c2c1CCCC2
→ 4.0	0.72	2.7	·	11	23%	·
> Cc1cccc(C(O)c2ncc(-c3ccc(F)cc3)[nH]2)c1C (stereo unspecified)
→ -4.6	·	·	i	·	·	1.9
> Cc1ccc(-n2c(SCC(=O)Nc3cccc(S(=O)(=O)NC4=NCCCCC4)c3)nc3ccccc3c2=O)cc1C
→ 2.5	0.71	2.3	·	2.0	28%	·
> O=C(N1CCN(Cc2ccccc2)CC1)C12CC3CC(CC(C3)C1)C2
→ 1.7	0.65	1.6	·	1.1	7%	·
> Cc1ccc(S(=O)(=O)N2CCN(c3ccc(C(=O)N4CCOCC4)cc3[N+](=O)[O-])CC2)cc1
→ -0.7	0.71	3.3	·	1.1	-1%	·
> Cn1c(=O)c2c(nc(OCc3ccccc3)n2C)n(C)c1=O
→ -3.1	0.73	-0.5	i	5.1	-5%	1.6
> CCSc1nc(=S)n(Cc2ccccc2)c(C)c1C(C)=O
→ -0.2	0.67	0.9	i	3.7	1%	3.9
> CCN(CC)CCCN1C(=O)CSC1c1ccc2c(c1)OCO2 (stereo unspecified)
→ 0.5	0.78	5.1	·	2.1	1%	·
> CC(=O)c1c(C(C)=O)c(C)n(Cc2ccccc2)c1C
→ 6.6	0.71	0.0	·	3.6	-2%	·

(list continues)
Fields: HNF4A DNA FP	E coli growth	RanGTP-Imp inh	FGF22 binding	UCH37 DUB inh	Vif TR-FRET	AF4-AF9 inh
> COc1ccc(-c2[nH]ncc2C2N=C(N)Nc3nc4ccccc4n32)cc1 (stereo unspecified)
→ -4.5	0.71	-0.9	i	1.5	·	-0.4
> CCOc1ccc(NC(=O)CN2CCN(CC(=O)Nc3cc(OC)cc(OC)c3)CC2)cc1
→ 1.6	0.78	·	·	-0.5	6%	·
> O=C(CCS(=O)(=O)c1ccc(Cl)cc1)N1CCN(c2ccccc2F)CC1
→ -0.7	0.72	3.8	·	0.3	14%	·
> COC(=O)[C@]12CCCCC=C1N(CCc1ccc(OC)c(OC)c1)C(=O)[C@H](CC(=O)NCC1CCCCC1)C2
→ -5.7	·	·	i	·	·	2.3
> Oc1ccccc1CNc1ccc2c(c1)OCCO2
→ 2.1	0.63	2.3	i	2.7	-5%	3.3
> COCCn1nnnc1C(c1ccccc1OC)N1CCc2ccccc2C1 (stereo unspecified)
→ -0.7	0.66	4.4	·	-1.5	·	·
> COC(=O)[C@H]1C[C@@H]1[C@H](NC(=O)c1cccnc1)c1ccccc1
→ -1.0	·	-1.6	i	2.5	·	-2.1
> CN(CC(=O)N1CCc2ccccc2C1)S(=O)(=O)c1ccc2c(c1)c(=O)n(C)c(=O)n2C
→ -8.5	0.75	·	i	7.7	0%	-3.4
> CSc1nc(N2CCOCC2)c2c(c1C#N)CCCCC2
→ -1.9	0.69	0.4	·	4.0	-17%	·
> CCCCn1c(N)c(N(CCC(C)C)C(=O)c2ccc3c(c2)OCO3)c(=O)[nH]c1=O
→ 1.0	·	-0.6	i	·	·	0.8
> O=C(O)C1=CC[C@@H](c2ccc(Cl)cc2)N(S(=O)(=O)c2ccc(Cl)cc2)C1
→ 1.0	·	·	i	4.3	·	-0.2
> Cc1cc(C(=O)N/N=C/c2ccc(N3CCOCC3)cc2)c(C)o1
→ 7.1	·	3.1	i	·	6%	4.3
> CCN(C(=O)Nc1cccc(Cl)c1)c1ccccc1
→ -2.9	0.66	-0.6	i	4.9	-2%	-7.2
> CC(C)N1CCC1(C)C(=O)Nc1cccc2ccccc12 (stereo unspecified)
→ 4.7	·	·	i	·	·	1.8
> O=C(c1ccc(N2C(=O)C3CC=C(Cl)CC3C2=O)cc1)N1CCOCC1 (stereo unspecified)
→ 2.6	0.68	11	·	1.3	-3%	·
